Cruzain inh Det – cruzain (T. cruzi) inhibition with detergent; P25779; purified cruzain, Z-FR-AMC fluorescence, 0.01% Triton; Potency, µM, inactives show max response, negative = inhibition, hits mostly inhibitors; 200,000 tested, 0.43% active; AID 1478;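 note: plate controls were neutral wells for no effect and buffer without enzyme for full effect; nearly all actives have a fitted effect of over 40% in size; top concentration of the series not given in the record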
Target sequence (P25779 123-467 limits assumed): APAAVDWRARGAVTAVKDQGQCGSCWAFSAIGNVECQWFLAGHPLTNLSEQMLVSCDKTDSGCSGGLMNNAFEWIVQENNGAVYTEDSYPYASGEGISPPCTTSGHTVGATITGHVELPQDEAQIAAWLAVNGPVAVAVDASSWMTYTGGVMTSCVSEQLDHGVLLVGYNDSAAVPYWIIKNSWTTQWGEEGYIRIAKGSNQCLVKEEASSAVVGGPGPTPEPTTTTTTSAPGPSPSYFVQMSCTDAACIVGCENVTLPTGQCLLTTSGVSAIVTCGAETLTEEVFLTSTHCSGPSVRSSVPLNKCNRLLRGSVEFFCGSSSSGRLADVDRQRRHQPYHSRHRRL
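Purified cruzain (1.5 nM final) was preincubated with compounds for 15 min at room temperature in 100 mM sodium acetate pH 5.5, 5 mM DTT, 0.01% Triton X-100. Reaction started with 2 uM Z-FR-AMC; AMC fluorescence change over 60 s gave activity.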
2A StopGo – FMDV 2A StopGo reporter, luciferase signal | human cells with a luciferase reporter of 2A StopGo recoding; control for the full effect not named in the record | Potency, µM (highest dose often 57.9 µM), for inactives: at the top dose signal change, negative = less light | 410,000 tested, 1.2% active; active = well fitted falling curve with a large enough effect; inconclusive = small, poorly fitted or top-dose-only effect; inactive = no such curve, though single readings can be large or run the other way; tested in HEK293T cells; note: % is set by controls: 0 for no effect and ±100 for the full control effect; nearly all actives have a fitted effect of over 45% in size; luciferase light after 4 h
LASV entry inh – Lassa virus entry inhibition | Lassa virus pseudotype entry inhibition, cell reporter; control for the full effect not named in the record | Potency, µM (highest dose often 37.9 µM), inactives show at the highest dose activity change, negative = inhibition, usual class: inhibitors | 300,000 tested, 1.2% active; active means well fitted inhibition curve with a large enough effect; inconclusive means small, poorly fitted or top-dose-only effect, or effect the other way; inactive means flat fitted curve, though single readings scatter; tested in HEK293 cells; note: % is set by controls: 0 for no effect and ±100 for the full control effect; nearly all actives have a fitted effect of over 50% in size; luciferase read-out
Cruzain noTriton – cruzain (T. cruzi) inhibition without detergent. P25779. 200,000 tested, 2.3% active. purified cruzain, Z-FR-AMC fluorescence, no detergent. Potency, µM, for the others: max response, negative = inhibition, hits mostly inhibitors. AID 1476;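 note: plate controls were enzyme without inhibitor for no effect and buffer without enzyme for full effect; nearly all actives have a fitted effect of over 40% in size; top concentration of the series not given in the record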
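Purified cruzain at 1.5 nM, pre-incubated 15 min with compound at room temperature in 100 mM sodium acetate pH 5.5, 5 mM DTT, 0.00005% Triton X-100. Reaction started with 2 uM Z-FR-AMC; AMC fluorescence increase over 60 s gives rate.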
NS1 function inh – influenza NS1 inhibition; S. cerevisiae slowed by influenza A NS1, growth recovery by OD600; Potency, µM (top dose mostly 46.1 µM), for the others: top-dose activity, positive = more growth; 270,000 tested, 0.4% active; AID 2326; active means well fitted rising curve with a large enough effect; inconclusive means small, poorly fitted or top-dose-only effect; inactive means no such curve, though single readings can be large or run the other way; note: nearly all actives have a fitted effect of over 50% in size
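Compounds were scored for reversing the slow growth caused by influenza A NS1 in S. cerevisiae, measured by optical density at 600 nm. Assay medium contained 2% galactose at pH 6.0; NS1-free yeast of the same strain were the positive control.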
RE007 growth inh – less growth of the S. pombe RE007 Vpr strain; S. pombe RE007 Vpr strain, BacTiter-Glo ATP luminescence, 24 h; control for the full effect not named in the record; Potency, µM (top dose mostly 92.2 µM), without a hit: top-dose activity change, negative = less growth; 360,000 tested, 0.21% active; active = well fitted falling curve with a large enough effect; inconclusive = small, poorly fitted or top-dose-only effect; inactive = no such curve, though single readings can be large or run the other way;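 note: % is set by controls: 0 for no effect and ±100 for the full control effect; nearly all actives have a fitted effect of over 50% in size; the assay follows cell death caused by Vpr and the record does not say whether a fall means rescue or toxicity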
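Fission yeast strain RE007, carrying one chromosomally integrated HIV-1 vpr copy, was seeded at OD 0.01 in PMG+AL medium with 23 nL pinned compound. After 24 h at 30 °C and 99% humidity, viability was read by BacTiter-Glo luminescence.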
SARS PLP yeast – inhibitors of SARS-CoV papain-like protease in yeast | S. cerevisiae expressing SARS-CoV PLpro, growth rescue; control for the full effect not named in the record | Potency, µM (doses to about 32.9 µM), without a hit: at the highest dose activity, positive = growth rescue | 330,000 tested, 0.19% active | AID 485353; active means well fitted rising curve with a large enough effect; inconclusive means small, poorly fitted or top-dose-only effect; inactive means no such curve, though single readings can be large or run the other way; note: 0% is about no effect; nearly all actives have a fitted effect of over 55% in size; growth read by luminescence after 48 h
Marburg entry inh – inhibitors of Marburg virus binding or cell entry. Marburg virus pseudotyped entry inhibition, cell reporter; control for the full effect not named in the record; about a third of the inactives were read at about 46 µM. Potency, µM (titrated, usually from 37.8 µM), inactives show at the top dose activity change, negative = inhibition, hits mostly inhibitors. 300,000 tested, 1.8% active; active = well fitted inhibition curve with a large enough effect; inconclusive = small, poorly fitted or top-dose-only effect, or effect the other way; inactive = flat fitted curve, though single readings scatter; tested in HEK293 cells; about a fifth of its hits are not listed in these tables; note: % is set by controls: 0 for no effect and ±100 for the full control effect; luciferase read-out
* = called active by the depositor; ? = inconclusive; · = not tested or not shown; & = joins results of further samples; [ ] = dose if it differs, or a comment. Unless noted, calls come from the whole dose curve; as a rule, active = well fitted curve in the direction sought with a large enough effect; inconclusive = small, poorly fitted or top-dose-only effect, or another doubt; inactive = no such curve, though single readings can be large; an effect the other way counts as inactive or inconclusive. Potency is the fitted concentration of half-maximal effect.

SMILES | Cruzain inh Det | 2A StopGo | LASV entry inh | Cruzain noTriton | NS1 function inh | RE007 growth inh | SARS PLP yeast | Marburg entry inh
COC(=O)C1=C(C)Nc2c(c(=O)n(C)c(=O)n2C)C1c1cccnc1 (stereo not given) | -3.7% | -8% | 6% | -11% | 0% | 0% | 15% | 2%
COc1ccccc1/C=C(/C(=O)OCC(=O)Nc1ccc(N(C)C)cc1)c1ccccc1 | -3.2% | -19% | 5% | -19% | ? | 6% | 0% | 32%
NCCCC[C@@H]1NC(=O)[C@H](CCC(=O)O)NC(=O)c2cc([N+](=O)[O-])cc(I)c2SC[C@@H](C(=O)NCC(N)=O)NC1=O | -0.3% | -16% | -4% | -4% | -8% | -2% | 8% | 17%
O=C(Nc1ccccc1N1CCOCC1)C1=NN(c2ccccc2)C(=O)CC1 | · | ? | ? | · | · | 101% | 2% | 12%
CCOc1ccc(N2CC(NC(=O)C3CCCC3)CC2=O)cc1 (stereo not given) | 0.0% | -8% | 8%[46.1 µM] | 6% | · | · | · | ·
CC1C(Br)C(=O)NC(=O)N1Cc1ccccc1 (stereo not given) | · | -9% | -27% | · | · | 13% | -8% | 10%[46.1 µM]
CCOC(=O)c1c(C)n(C)c2ccc(OCC(O)CN3CCCCCC3)cc12 (stereo not given) | 0.3% | -27% | · | -10% | -4% | -21% | -3% | 9%
CCn1c(SCC(=O)N2CCCC(C)C2)nnc1-c1ccc(S(=O)(=O)N2CCN(C)CC2)cc1 (stereo not given) | 6.7% | -10% | 11% | -6% | 1% | -9% | 3% | 3%
CC(=O)Nc1ccc(CN2CCC(Oc3ccc(C(=O)N4CCCC4)cc3)CC2)cc1 | · | 3% | 6% | · | -9% | -1% | -1% | ?
Cc1ccc(-c2noc(CCC(=O)NCC3CCN(Cc4cccc(C)c4)CC3)n2)cc1 | 2.6% | ? | -13% | -2% | -1% | 26% | -1% | ?
CC(=O)n1cc([C@@H]2C=C(C(=O)N3CCOCC3)O[C@H](OCc3ccc(CO)cc3)C2)c2ccccc21 | · | -20% | · | · | 1% | 2% | 0% | ·
O=C(CNC(=O)Cc1cccc2ccccc12)NCc1ccc(F)cc1 | · | -5% | -5% | · | 5% | -28% | 0% | 7%[46.1 µM]
Nc1cc(N)nc(SCCc2ccccc2)n1 | · | 47%[activator] | -2% | · | -20% | -1% | -14% | ?
O=C(/C=C/c1c(F)cccc1Cl)NCCCN1CCOCC1 | · | -2% | · | · | -7% | 0% | 1% | ·
O=C1C(=O)N(C2CCN(C(=O)c3ccccc3Cl)CC2)CCN1Cc1ccc(F)cc1 | 1.7% | -3% | 15%[46.1 µM] | -4% | · | · | · | ·

A stretch from further up, for reference:
SMILES | Cruzain inh Det | 2A StopGo | LASV entry inh | Cruzain noTriton | NS1 function inh | RE007 growth inh | SARS PLP yeast | Marburg entry inh
O=C(CNC(=O)Cc1cccc2ccccc12)NCc1ccc(F)cc1 | · | -5% | -5% | · | 5% | -28% | 0% | 7%[46.1 µM]
Nc1cc(N)nc(SCCc2ccccc2)n1 | · | 47%[activator] | -2% | · | -20% | -1% | -14% | ?
O=C(/C=C/c1c(F)cccc1Cl)NCCCN1CCOCC1 | · | -2% | · | · | -7% | 0% | 1% | ·
O=C1C(=O)N(C2CCN(C(=O)c3ccccc3Cl)CC2)CCN1Cc1ccc(F)cc1 | 1.7% | -3% | 15%[46.1 µM] | -4% | · | · | · | ·

Remaining list, next part:
SMILES | Cruzain inh Det | 2A StopGo | LASV entry inh | Cruzain noTriton | NS1 function inh | RE007 growth inh | SARS PLP yeast | Marburg entry inh
NC(=O)C1CCN(c2ccc(C(F)(F)F)cn2)CC1 | · | 23% | · | · | · | -29% | 3% | 1%[46.1 µM]
COCCn1c(N)c(N(Cc2ccccc2)C(=O)C2CCCCC2)c(=O)[nH]c1=O | · | -4% | 5%[46.1 µM] | · | · | 0% | 1% | 0%[46.1 µM]
COc1ccc(N(C)C(=O)c2cc3c(s2)-c2ccccc2S(=O)(=O)C3)cc1 | · | -6% | ? | · | -5% | -4% | 0% | ?
O=C1CCC(=O)N1CCCCCc1nc(-c2ccccc2)no1 | 9.8% | -5% | -8% | 7% | -15% | -13% | 1% | 0%
O=C(CCC1CCCC1)N1CCN(C(=O)c2cccnc2)CC1 | 0.5% | -19% | -1% | -4% | -9% | 16% | -1% | ?
COC(=O)CN(c1ccccc1F)S(=O)(=O)c1ccccc1 | 3.8% | 1% | 11% | 8% | 0% | -17% | 2% | 13%
CCc1ccc(CN(Cc2cn[nH]c2-c2ccc(OC)cc2)C(=O)Nc2ccc(C)c(F)c2)cc1 | -8.7% | ? | 3%[46.1 µM] | -3% | · | · | · | -27%[46.1 µM]
CCSc1nnc(NC(=O)c2cc(C)nc3ccccc23)s1 | -1.5% | -13% | 6% | 0% | -11% | 2% | 5% | ?
CCCc1cc(N2CCN(c3cccc(C)c3C)CC2)n2cnnc2n1 | -1.7% | ? | -25%[46.1 µM] | -8% | · | · | · | -1%[46.1 µM]
OC1(c2ccccc2)CC(c2ccccc2)c2ccccc2O1 (stereo not given) | · | -2% | ? | · | · | -1% | · | ?
CCCCN(C(=O)c1ccc(C)cc1)c1c(N)n(CCC)c(=O)[nH]c1=O | · | -8% | 4% | · | 4% | -3% | -3% | ?
COc1ccc(CCNC(=O)C2CCC(C(C)(C)C)CC2)cc1OC (stereo not given) | · | -9% | · | · | -43% | 3% | -3% | ·
O=C(O)/C=C/C(=O)Nc1ccc(OC(F)(F)F)cc1Br | · | -10% | 7% | · | 3% | 10% | -5% | -3%[46.1 µM]
COc1cccc(C(=O)c2c[nH]c(C(=O)NCc3cccnc3)c2)c1 | · | -7% | -13% | · | · | -6% | -1% | -20%[46.1 µM]
O=C(CSc1nnc(SCc2ccccc2)s1)N/N=C/C=C/c1ccco1 | -18% | -10% | -6% | 2% | 6% | 7% | 4% | ?

Next part.
SMILES | Cruzain inh Det | 2A StopGo | LASV entry inh | Cruzain noTriton | NS1 function inh | RE007 growth inh | SARS PLP yeast | Marburg entry inh
Cc1ccc(C(=O)C(C)OC(=O)Cc2c[nH]c3ccccc23)cc1 (stereo not given) | · | -18% | -29%[46.1 µM] | · | · | 12% | -11% | 6%
COc1ccc(C(=O)N2CCOC2CNC(=O)C(=O)NCCc2ccc(OC)c(OC)c2)cc1 (stereo not given) | · | -24% | ? | · | 9% | -21% | -2% | 13%
Cc1ccc(Cn2c(CNC(=O)c3ccccc3Br)nc3cccnc32)cc1 | -12% | 12% | 5%[46.1 µM] | -4% | · | · | · | ·
COc1cccc(OC)c1OCCNC(C)(C)C | 2.5% | -21% | 1% | 13% | 5% | 9% | -11% | -6%
COc1ccc(CNC(=O)CSCc2cnn(-c3ccccc3)c2-n2cccc2)cc1OC | 1.8% | 16µM* | ? | 5% | · | · | · | ?
COc1cc(C(C)=O)ccc1OCCN1CCC(Cc2ccccc2)CC1 | · | -14% | ? | · | -4% | -21% | 1% | ?
COc1ccc(NC(=O)CN(C)CC(=O)Nc2ccc(N3CCOCC3)cc2)c([N+](=O)[O-])c1 | · | -12% | ? | · | · | -5% | 3% | -18%[46.1 µM]
CC(C)(C)OC(=O)N1CCC[C@H]1c1nnc(SC/C=C/c2ccccc2)o1 | 0.6% | ? | -1% | ? | -41% | 5% | -1% | ?
N/C(=N\OC(=O)c1cccc([N+](=O)[O-])c1)c1ccccn1 | · | 11% | -26% | · | · | -12% | 0% | ?
O=C(Cc1cccs1)NC1CCCC1 | · | 16% | 4% | · | 3% | 5% | 1% | -28%[46.1 µM]
Cc1ccc2nc(-c3cccnc3)c(Nc3ccccc3C)n2c1 | -3.0% | -16%&-15% | ? | -2% | · | 2% | 1% | ?
COc1ccc(C2=NN(C(=O)CCC(=O)O)C(c3ccc([N+](=O)[O-])cc3)C2)cc1 (stereo not given) | · | -3% | 23% | · | 29% | 2% | -1% | 24%
CCn1c(SCC(=O)N2CCCc3ccccc32)nc2c1c(=O)n(C)c(=O)n2C | -6.0% | -25% | 2% | -3% | -11% | 3% | 2% | -29%
S=c1[nH]nc(-c2ccc(Cl)cc2)n1/N=C/c1cccs1 | · | 35%[activator] | -14% | · | 1% | 1% | 0% | 10%[46.1 µM]
CCOC(=O)c1ccc(NC(=O)c2c(NCc3ccc(OC)c(OC)c3OC)sc3c2CCC(C)C3)cc1 (stereo not given) | -6.6% | -21% | 11%[46.1 µM] | 0% | · | · | · | ·

Other compounds
SMILES | Cruzain inh Det | 2A StopGo | LASV entry inh | Cruzain noTriton | NS1 function inh | RE007 growth inh | SARS PLP yeast | Marburg entry inh
Cc1nnc(NC(=O)c2ccccc2NC(=O)c2ccccc2)s1 | · | -4% | · | · | 1% | 21% | 0% | ·
CCOc1ccc(C2CC(c3ccccc3C)n3ncnc3N2)cc1 (stereo not given) | 2.2% | ? | · | 3% | -22% | 10% | -6% | ·
CCN(C(=O)COC(=O)c1cc(-c2cccc3ccccc23)nc2ccccc12)C1CCS(=O)(=O)C1 (stereo not given) | -7.8% | -29% | -18% | ? | 28% | · | 22% | -10%
COc1ccccc1C(=O)Nc1nc2nc(-c3ccccc3)cc(=O)n2[nH]1 | -0.7%&-1.2% | -18%&-18% | -8% | -5%&2% | 11% | 9% | -4% | 2%[46.1 µM]

Entries of single compounds, looked up by structure.
Cc1nnc(NC(=O)c2ccccc2NC(=O)c2ccccc2)s1 in the list: Cruzain inh Det: ·; 2A StopGo: -4%; LASV entry inh: ·; Cruzain noTriton: ·; NS1 function inh: 1%; RE007 growth inh: 21%; SARS PLP yeast: 0%; Marburg entry inh: ·
O=C(CCC1CCCC1)N1CCN(C(=O)c2cccnc2)CC1 in the list: Cruzain inh Det: 0.5%; 2A StopGo: -19%; LASV entry inh: -1%; Cruzain noTriton: -4%; NS1 function inh: -9%; RE007 growth inh: 16%; SARS PLP yeast: -1%; Marburg entry inh: ?

Screening data as filed in PubChem.
